PABP FP inh: PABP poly(A) RNA binding inhibitors, primary screen, biochemical, fluorescence polarization, uHTS | Polyadenylate-binding protein 1 (Homo sapiens), P11940 | inhibition, % at 35 µM | 290,000 compounds, 1% hits;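 active = 50% or more with normal probe brightness, or confirmed in later tests; inconclusive = above 50% with abnormal brightness, or retests that disagree; inactive = below 50% or failed in later tests; about a fifth of its hits are not listed in these tables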;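 note: calls also rest on retests at 20 µM and on dose response follow-up; controls were probe without protein and protein plus probe with vehicle; some compounds called inactive have numbers as strong as hits; many hits fall short of the cut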
Target sequence (P11940 whole entry, looked up): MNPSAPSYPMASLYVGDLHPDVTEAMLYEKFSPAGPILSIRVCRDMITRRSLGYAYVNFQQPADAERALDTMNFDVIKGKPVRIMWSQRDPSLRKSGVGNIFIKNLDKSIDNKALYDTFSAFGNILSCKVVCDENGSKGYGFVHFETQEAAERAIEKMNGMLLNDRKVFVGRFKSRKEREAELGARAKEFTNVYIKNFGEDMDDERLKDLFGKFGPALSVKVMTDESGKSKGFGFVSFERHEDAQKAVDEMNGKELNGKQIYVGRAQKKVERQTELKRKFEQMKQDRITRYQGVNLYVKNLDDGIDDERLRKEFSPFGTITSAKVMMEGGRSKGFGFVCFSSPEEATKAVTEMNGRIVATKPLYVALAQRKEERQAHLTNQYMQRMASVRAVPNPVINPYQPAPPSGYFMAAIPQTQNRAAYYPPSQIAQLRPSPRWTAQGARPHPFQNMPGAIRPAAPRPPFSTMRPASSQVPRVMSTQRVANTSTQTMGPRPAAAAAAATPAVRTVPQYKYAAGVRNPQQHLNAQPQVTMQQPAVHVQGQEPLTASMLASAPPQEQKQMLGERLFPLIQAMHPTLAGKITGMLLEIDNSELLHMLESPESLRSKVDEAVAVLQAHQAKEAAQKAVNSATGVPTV
CSC inhib: cancer stem cell viability inhibitors, primary screen, luminescence | inhibition, % at 7.5 µM | 300,000 compounds, 1.1% hits | AID 2717, 2010 | cancer stem cell-like cells viability;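 active = mean at 75% or more and at least half the replicates too; inconclusive = mean and replicates disagree; tested in HMLE shEcad cells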;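 note: 0% = median of negative and 100% = median of positive control wells; the first replicate is given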
Rce1 inh: yeast Rce1p protease inhibitors, primary screen, biochemical, fluorescence, cell-free homogeneous; CAAX prenyl protease 2 (Saccharomyces cerevisiae (strain ATCC 204508 / S288c)), Q03530; 290,000 compounds, 0.27% hits; yeast membranes, quenched prenylated peptide cleavage fluorescence; AID 2563, 2010; calls only;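 active = fall in fluorescence gain of 50% or more versus controls, with final raw signal at or below 3038400; inconclusive = same 50% fall but final raw signal above 3038400; inactive = fall in fluorescence gain under 50%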;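 note: plate controls were neutral control wells for no effect and wells lacking membranes for full effect; tested at 10 µM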
Target sequence (Q03530 whole entry, looked up): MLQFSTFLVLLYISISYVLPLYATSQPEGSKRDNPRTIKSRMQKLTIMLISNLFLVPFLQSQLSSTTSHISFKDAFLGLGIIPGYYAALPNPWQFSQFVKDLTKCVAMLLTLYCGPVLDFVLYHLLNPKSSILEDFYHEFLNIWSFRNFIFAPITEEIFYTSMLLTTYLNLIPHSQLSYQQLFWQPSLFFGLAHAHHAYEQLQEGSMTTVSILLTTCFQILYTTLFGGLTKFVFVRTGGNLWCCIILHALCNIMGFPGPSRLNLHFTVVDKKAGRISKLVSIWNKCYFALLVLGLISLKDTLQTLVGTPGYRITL
Yeast UUG start: modulators of yeast start codon fidelity, primary screen, whole organism, S. cerevisiae, single point, plate reader. AID 602363, 2012. 350,000 compounds, 0.13% hits. S. cerevisiae UUG-firefly luciferase reporter, luminescence/redox ratio. activity score, % at 18.7 µM;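 active = replicate mean at a twofold rise or more, about +100% in these data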;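 note: firefly luciferase made from a UUG start codon reports start codon fidelity; reporter light over untreated wells divided by growth signal over untreated wells; some hits fall short of that in this replicate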
eIF4H inh: human eIF4H binding inhibitors, primary screen, translation initiation inhibitor project, biochemical, uHTS, fluorescence polarization. eIF4H fluorescence polarization binding assay. inhibition, % at 35 µM. 290,000 compounds, 0.94% hits. AID 2012, 2009;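 active = 50% or more with normal probe brightness, or confirmed in later tests; inconclusive = above 50% with abnormal brightness, or retests that disagree; inactive = below 50% or failed in later tests; about a fifth of its hits are not listed in these tables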;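 note: calls also rest on retests at 20 µM and on dose response follow-up; 0% = protein and probe with vehicle and 100% = probe without protein; strong numbers were not always called active; many hits fall short of the cut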
MT1-MMP act inh: blockers of MT1-MMP proenzyme processing, primary screen, HT1080 RFP-PRO-GFP cells, GFP/RFP fluorescence | Matrix metalloproteinase-14 (Homo sapiens), P50281 | GFP/RFP ratio fluorescence, overnight; percent of plate control window, DMSO zero | GFP/RFP ratio change, % at 20 µM | 360,000 compounds, 0.061% hits;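 active = GFP/RFP ratio change of at least 30% with cell ATP level not reduced by more than half and red fluorescence within 50% of control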; note: strong numbers were not always called active
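Test system: HT1080 cells expressing an RFP-PRO-GFP fluorescent reporter construct / Compound dosing: single-point 20 µM compound, 1% DMSO / Schedule: cells overnight before dosing, compound overnight, 37 °C, 5% CO2 / Evaluation: GFP/RFP fluorescence ratio / Control set: DMSO and RFP-L50D-GFP cell wells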
Env fusion inh: inhibitors of HIV-1 Env-driven cell-cell fusion, primary screen, HeLa-JRFL effector, CEM21 target cells, luciferase. inhibition, % at 12.3 µM. 360,000 compounds, 1.1% hits;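 active = mean replicate inhibition score of at least 50 and every replicate individually at or above 50; inconclusive = only one of the two criteria met; inactive = mean below 50 and not all replicates reaching 50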;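 note: 0% = plate neutral controls and 100% = maraviroc near 300 nM; one replicate is shown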
eIF4H inh retest: recorded beside eIF4H inh, whose call it bears; inhibition, %; compound at 20 µM; confirmation average;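 mean of two retest wells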
PABP FP inh retest: second read-out of PABP FP inh, no call of its own (marks repeat the call); inhibition, %; compound at 20 µM; confirmation repeats;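 mean of two retest wells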
MT1-MMP act inh RFP: further read-out of MT1-MMP act inh, marked with its call; RFP signal change, %; measured here: RFP expression control read;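 0 = vehicle wells; hits needed this value within 50% of zero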
* hit, by the source's call; i = inactive; ? = inconclusive; . = not tested or not shown; & = joins results of further samples; [ ] = remark or other dose. An excerpt; the hit share may differ from the screen's.

SMILES | PABP FP inh | CSC inhib | Rce1 inh | Yeast UUG start | eIF4H inh | MT1-MMP act inh | MT1-MMP act inh RFP | Env fusion inh | others
O=c1[nH]c2ccccc2n1C1CCN(C(c2cc3ccccc3o2)c2nnnn2-c2ccc3c(c2)OCCO3)CC1 (configuration not stated) | . | . | . | -9.6 | . | -30.7 | -28.5 | 23.2
COC(=O)C1=C(c2ccccc2)C[C@@H]2CC[C@H]1N2C(=O)NCCCOC(C)C | . | -10.0 | i | 4.1 | . | 0.9 | 1.3 | 3.8
COc1ccc(-c2csc(NC(=O)COC(=O)Cc3ccccc3)n2)cc1OC | 17.6 | -4.1 | i | . | 0.6 | . | . | .
CCOC(=O)c1ccc(N2C(=O)CC(N3CC=C(c4ccc(F)cc4)CC3)C2=O)cc1 (configuration not stated) | 22.1 | -3.9 | i | -10.3 | 11.5 | -14.7 | -0.8 | .
CC(=O)N1CCN(CCN=Cc2c(O)n(-c3ccc(F)cc3)c(=S)[nH]c2=O)CC1 | 10.6 | -3.4 | i | -15.7 | -0.5 | 0.4 | 4.9 | -7.8
CN1C(=O)C(=Cc2ccccc2Oc2ccc(Cl)cc2)C(=O)N(C)C1=O | -1.4 | 19.3 | i | . | 1.9 | 1.4 | 2.7 | .
COc1ccc(OC)c(N2Cc3ccccc3C2=N)c1 | -7.3 | -10.2 | i | . | -7.3 | -0.3 | 1.5 | -42.8
CN(C)Cc1c[nH]c2ccc([N+](=O)[O-])cc12 | . | . | . | -13.7 | . | 0.3 | -0.3 | -3.7
CCC1(CC)C(=N)N(C)C(=O)NC1=O | -4.0 | -15.2 | i | -16.5 | -9.4 | -1.3 | 1.3 | .
COc1ccc(C2C(C(=O)N3CCC4(CC3)OCCO4)c3cc(OC)c(OC)cc3C(=O)N2C)cc1 (configuration not stated) | 7.9 | -19.0 | i | 2.4 | -11.4 | 0.6 | -5.2 | 13.3
O=C(NC(=S)N1C[C@H]2C[C@H](C1)c1cccc(=O)n1C2)c1ccc(Cl)cc1 | 1.7 | -2.7 | i | -24.8 | 4.0 | 0.3 | 3.9 | .
O=C(C(=O)N1CCOCC1)c1cn(Cc2ccccc2F)c2ccccc12 | 0.0 | -10.2 | i | -4.3 | -7.1 | -4.2 | -3.9 | .
O=C1N(c2ccc(Cl)cc2)C(c2cccnc2)N2CCCN12 (configuration not stated) | 0.3 | 5.3 | i | . | -8.4 | 6.2 | -0.5 | -11.4
CCC(=O)c1ccc(OC(=O)N(C)c2ccccc2)cc1 | -7.8 | -12.2 | i | . | -5.2 | 0.5 | 0.0 | -0.1
Cc1cccn2c(=O)c3cc(C(=O)N4CCC5(CC4)OCCO5)n(C)c3nc12 | 5.9 | 29.4 | i | -14.2 | -10.0 | 7.8 | -6.1 | -93.8
COc1ccccc1NC(=O)c1cn(CCC#N)nc1-c1ccc(F)cc1 | 1.2 | -10.0 | i | -15.1 | -6.5 | 1.8 | 1.5 | 1.6
Cc1nc2nc(C)c(CCC(=O)N3CCC4(CC3)OCCO4)c(C)n2n1 | 3.0 | 7.3 | i | -15.3 | -5.7 | 4.0 | 1.5 | .
COC(=O)C1=C(c2cccc(C#N)c2)C[C@@H]2CC[C@H]1N2C(=O)N1CCC(O)CC1 | . | 7.6 | . | -10.5 | . | 1.4 | 2.5 | -20.4
CN(Cc1ccccc1)Cc1ccccc1OC(=O)N(C)C | 6.8 | -6.8 | i | -8.7 | -2.1 | -5.0 | 0.6 | -7.5
CCOP1(=S)Oc2cc3c(cc2C(C(=O)OC)(C(F)(F)F)O1)OCO3 (configuration not stated) | 8.8 | -15.3 | i | -2.9 | -8.2 | 6.3 | -0.8 | -11.0
O=C1NC(=O)N(CCc2ccc(F)cc2)C(=O)/C1=C\C=C\c1ccccc1 | -3.6 | . | . | -7.9 | 12.8 | -34.1 | -14.8 | -18.2
c1csc(CN2CCNCC2)c1 | 60.4 | -1.3 | i | . | -2.5 | -0.5 | 3.9 | 0.2 | eIF4H inh retest=-5.8;PABP FP inh retest=1.5
C[C@@H]1CN([C@@H](C)CO)C(=O)CCCn2nncc2CO[C@@H]1CN(C)C(=O)Oc1ccccc1 | . | . | . | 9.0&-11.2 | . | 1.9 | 4.1 | -1.1[16.7 µM]
Cn1c(O)c(C=NC2CCCCC2)c(=O)[nH]c1=S | -1.6 | . | i | . | -2.2 | 2.5 | 1.8 | 12.5
COc1cc(CN2CCN(c3cc(C)ccc3C)CC2)ccc1O | 6.5 | -5.4 | i | -16.6 | -6.2 | -1.5 | -4.4 | .
CCOP(=O)(OCC)C(NC(=O)C(C)C)C(Cl)(Cl)Cl (configuration not stated) | 0.9 | -12.4 | i | -11.8 | -9.2 | -5.5 | 0.8 | -26.6
Cc1nn(CC(C)C)c(Cl)c1C(=O)NC1CCC(C)CC1 (configuration not stated) | . | -9.0 | i | . | . | 0.9 | -1.5 | .
COc1ccc(/C=C2/C(=O)NC(=S)N(C3CC3)C2=O)cc1CN1C(=O)c2ccccc2C1=O | -3.4 | -4.9 | . | -7.3 | 6.0 | -5.0 | 11.9 | -0.3
COCCNC(=O)Cn1cc(C(=O)c2ccccc2F)c2ccccc21 | -3.0 | -8.7 | i | -7.4 | -14.4 | -1.4 | 3.8 | -1.5
Cc1oc(-c2ccccc2)nc1CN1C(=O)CN=C(c2ccccc2)c2ccccc21 | 8.9 | 1.8 | i | -11.7 | 6.4 | -6.4 | -7.0 | -24.8
C=C(C)[C@H]1CN[C@H](C(=O)O)[C@H]1CC(=O)O | . | -3.8 | i | -1.2 | . | -0.7 | -4.7 | -12.5
CCC(C)N1C(=O)NC(=O)C2(Cc3c(ccc4ccccc34)N(C)C2)C1=O (configuration not stated) | 30.8 | 13.3 | i | -0.1 | 9.4 | -6.6 | -2.3 | -17.6
O=C1NC(=S)NC(=O)C12C(c1ccc(F)cc1)NC(=S)NC2c1ccc(F)cc1 (configuration not stated) | 5.6 | -7.3 | i | . | 4.5 | 0.4 | 8.0 | -79.2
C=C1C(=O)O[C@@H]2C[C@@H](C)[C@H]3C=CC(=O)[C@]3(O)C[C@@H]12 | 4.2 | 3.2 | i | -3.0 | 26.5 | 7.6 | 1.5 | -33.0
O=C1CCN(C(=O)Cc2ccccc2[N+](=O)[O-])CC1 | -2.0 | . | i | . | 2.0 | -2.9 | -3.0 | 9.8
C(CCc1nn[nH]n1)CCc1nn[nH]n1 | 13.3 | -1.7 | i | . | 5.9 | -1.3 | 1.6 | 1.4
CNC(=O)Oc1ccc2ncccc2c1 | 6.4 | 3.2 | i | -5.3 | -1.7 | 4.2 | 3.8 | -14.8
CNS(=O)(=O)c1ccc(N=Cc2c(O)n(-c3ccc(C)cc3)c(=O)[nH]c2=O)cc1 | ? | 3.0 | i | . | ? | -87.3 | 4.1 | -0.1
CCC(=Nc1cccc(C(F)(F)F)c1)c1c(O)n(C)c(=O)n(C)c1=O | 2.2 | -4.3 | i | . | -2.7 | -1.8 | -1.9 | 0.8
C/C(=N\NC(=O)c1ccccc1)c1c(O)n(Cc2ccccc2)c(=O)[nH]c1=O | 2.7 | -5.4 | i | 21.5 | -8.9 | -1.4 | -4.1 | -6.2
O=[N+]([O-])c1ccc(NCc2ccccc2)c2nonc12 | 12.4 | 0.3 | i | . | ? | . | . | 9.2
Cc1cccc(NC(=O)N2CCCC2)c1 | -4.5 | -4.7 | i | . | 1.3 | 2.3 | 2.3 | 11.2
CNC(C)Cc1ccccc1Sc1ccc(O)cc1 (configuration not stated) | -11.0 | 8.4 | i | -7.8 | 3.4 | -10.9 | -9.8 | .
CCOC(=O)C1CCCN(c2ccc([N+](=O)[O-])c3nonc23)C1 (configuration not stated) | -2.0 | . | i | . | ? | -37.2 | 59.4 | 3.0
CN1CCN(c2nc(Cl)ncc2F)CC1 | -2.1 | -1.8 | i | -5.7 | 6.8 | -2.7 | -2.9 | 1.5
CN1C2CCC1CC(OC(=O)CCN1CCCC1)C2 (configuration not stated) | 13.9 | -3.3 | i | 1.2 | 3.5 | -0.3 | 4.0 | 13.7
COC(=O)C1=C(c2ccccc2)C[C@@H]2CC[C@H]1N2C(=O)NCc1ccc(F)cc1 | . | -4.1 | i | 20.0 | . | 1.5 | 2.4 | -18.9
Cc1cc(/C=C2\C(=O)NC(=O)N(Cc3ccccc3Cl)C2=O)c(C)n1-c1ccc(C(=O)O)cc1 | ? | 8.4 | i | . | ? | -34.4 | 13.0 | 14.5
CC(=O)NC1C(OC(=O)Cc2ccccc2)OC(COC(C)=O)C(OC(C)=O)C1OC(C)=O (configuration not stated) | 6.4 | 11.1 | . | . | -8.5 | -5.2 | -0.5 | 4.4
C[C@]1(O)CCC2C3CC[C@@H]4CC(=O)CC[C@]4(C)C3CC[C@@]21C (some centres not stated) | . | -6.4 | . | . | . | 2.4 | 0.0 | 7.8
Cc1ccc(-c2cc(-c3ccc(C)cc3)[n+](C)o2)cc1 | -0.6 | 7.3 | i | 27.1 | -3.4 | -3.1 | -28.4 | 27.8
C/C(=N\N1CCCCCC1)c1c(O)n(C)c(=O)n(C)c1=O | -2.2 | -5.3 | i | . | -1.1 | . | . | .
NC1=C([N+](=O)[O-])C(c2ccc3c(c2)OCO3)c2c(c3ccccc3oc2=O)O1 (configuration not stated) | 11.5 | -2.9 | i | . | -3.6 | . | . | 2.6
COc1cc2c(cc1OC)C(C)NCC2 (configuration not stated) | . | -3.2 | . | -24.2 | . | -0.7 | 1.2 | 0.1
Cc1ccc(N2C(=O)NC(=O)/C(=C\c3ccoc3)C2=O)cc1 | -10.4 | -8.8 | i | 5.8 | ? | -100.7 | 9.5 | 9.8
COc1cccc(C(c2nnnn2-c2ccc3c(c2)OCCO3)N2CCC(n3c(=O)[nH]c4ccccc43)CC2)c1OC (configuration not stated) | . | . | . | 18.0 | . | -10.7 | -12.7 | 22.1
O=C1NC(=O)C(C(CC(=O)c2ccccc2)c2ccccc2)C(=O)N1 (configuration not stated) | 2.3 | -21.9 | i | . | -1.6 | -0.1 | 3.8 | 4.0
CN(C)C(=O)Oc1ccc(OC(=O)c2ccccc2)cc1 | 2.9 | -3.6 | i | . | -3.3 | -2.7 | 0.7 | -4.1
CCCN1CCC(NC2CCC(O)CC2)CC1 (configuration not stated) | 21.5 | -7.6 | i | -13.7 | 8.7 | -4.3 | 0.2 | -8.4
Cc1ccc(S(=O)(=O)N2CC2(C)CCl)cc1 (configuration not stated) | 5.6 | -12.2 | i | . | 11.5 | -1.7 | -3.1 | 5.9

Source: PubChem (several laboratories)
